Bioassay records deposited in PubChem BioAssay by National Center for Advancing Translational Sciences (NCATS).
VDR inhibitor: vitamin D3 receptor (human) inhibition; P11473; VDR-SRC2-3 peptide fluorescence polarization, 2 h; Potency, µM, without a hit: max response, negative = inhibition, actives largely listed as inhibitors; 0.93% of 400,000 active; AID 504847; active = well fitted inhibition curve with a large enough effect; inconclusive = small, poorly fitted or top-dose-only effect, or another doubt; inactive = no such curve, though single readings can be large or run the other way; note: series mostly up to about 120 µM
Target sequence (P11473 whole entry, looked up): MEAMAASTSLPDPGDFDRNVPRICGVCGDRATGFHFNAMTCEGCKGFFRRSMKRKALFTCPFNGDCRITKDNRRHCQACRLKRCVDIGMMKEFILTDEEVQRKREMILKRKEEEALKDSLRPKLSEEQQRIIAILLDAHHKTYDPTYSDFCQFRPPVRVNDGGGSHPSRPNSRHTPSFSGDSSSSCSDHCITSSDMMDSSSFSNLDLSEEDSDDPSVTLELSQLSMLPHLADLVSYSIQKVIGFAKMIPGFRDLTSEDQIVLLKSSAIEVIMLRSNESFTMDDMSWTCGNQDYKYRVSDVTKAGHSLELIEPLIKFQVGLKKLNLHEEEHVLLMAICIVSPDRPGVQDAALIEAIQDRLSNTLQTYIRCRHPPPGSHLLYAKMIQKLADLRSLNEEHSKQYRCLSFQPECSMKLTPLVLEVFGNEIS
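FP read-out; VDR + SRC2-3 coactivator peptide; 23 nl compound by pintool; 2 h RT incubation; reagents held at 4 deg C, protected from light.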
* = called active by the depositor; ? = inconclusive; & = joins results of further samples. % is set by controls: 0 for no effect and ±100 for the full control effect; potency is the fitted concentration of half-maximal effect. A portion of the library. The share of hits here may be higher or lower than overall.

Start of the listing, in advance:
SMILES | VDR inhibitor
O=C(CN1CCC(Cc2ccccc2)CC1)NC(=O)NCc1ccco1 | 25%
Cc1ccc(C)n1-c1c(C(=O)NCCC(C)C)sc2ncccc12 | -4%
CC[C@]1(C(=O)OC)[C@H]2C(=O)N(Cc3ccccc3)C(=O)[C@H]2[C@H]2CN=C(SCc3ccccc3)N21 | -20%

The whole of this part (from the top)
SMILES | VDR inhibitor
O=C(CN1CCC(Cc2ccccc2)CC1)NC(=O)NCc1ccco1 | 25%
Cc1ccc(C)n1-c1c(C(=O)NCCC(C)C)sc2ncccc12 | -4%
CC[C@]1(C(=O)OC)[C@H]2C(=O)N(Cc3ccccc3)C(=O)[C@H]2[C@H]2CN=C(SCc3ccccc3)N21 | -20%
Cn1cc(CN2CCC(C(O)c3cccs3)CC2)c(-c2ccccc2F)n1 (centres undefined) | -6%
c1ccc(C[n+]2c(-c3ccccc3)csc2Nc2ccccc2)cc1 | -19%
Cc1ccc(N(CN2CCCC2=O)C(=O)c2ccc(OC(C)C)cc2)cc1 | -2%
N#C/C(=C\c1c(Cl)cccc1Cl)c1nn(-c2ccccc2)c(-n2cccc2)c1C#N | 15%
Cc1ccc(C(=O)Nc2ccc(N3CCOCC3)nc2)cc1 | -15%
COC(=O)CNC(=O)CN1C(=O)N(c2ccc(Cl)cc2)C(N(O)C(=O)Nc2ccc(Cl)cc2)C1(C)C (centres undefined) | 19%
CC1CCCN(CC(=O)NC(=O)NC2CCCCC2)C1 (centres undefined) | 11%
COCCCNC(=O)C1CCC(CNS(=O)(=O)c2ccc3c(c2)CC(C)N3C(=O)C2CC2)CC1 (centres undefined) | 1%
NC(=O)c1cnn(-c2ccc3ccccc3c2)c1N | -2%
CC1=C(C(=O)OCc2ccccc2)C(c2ccc(-c3ccccc3)cc2)NC(=O)N1CCCCCC(=O)O (centres undefined) | -5%
COc1ccc(CCCc2nnc(SCC(=O)Nc3ccc(F)cc3)o2)cc1C | -4%
CCNC(=O)COC(=O)CCC(=O)c1ccc(F)cc1 | -2%
Cc1nn(Cc2ccc(F)cc2)c(C)c1NC(=O)c1cc(-c2ccc3c(c2)OCO3)on1 | 11%
CN(Cc1ccccc1)S(=O)(=O)c1ccc2c(c1)NC(=O)CC(=O)N2 | -2%
Cc1ccc(S(=O)(=O)NC2=NCN(C3CCN(Cc4ccccc4)CC3)CN2)cc1 | 3%
CC(C)(C)c1ccc(C(=O)Nc2ccc3c(c2)CCCN3C(=O)c2cccs2)cc1 | -1%
C/C(CCc1ccccc1)=N/NC(=O)C(=O)NCc1ccccc1 | -5%
O=C(Cn1c(=O)oc2ccccc21)Nc1ccccc1C(F)(F)F | 19%
COc1ccc(/C=C/c2nc(C#N)c(N3CCCCCC3)o2)cc1OC | 2%
COc1ccccc1NC(=O)CN(C)S(=O)(=O)c1ccc2c(c1)CCC(=O)N2 | -12%
COc1ccc(S(=O)(=O)N(CCc2ccccc2)CC(=O)NCc2ccccc2)cc1 | -13%
COc1cccc(C(=O)NNC(=O)c2ccccc2-n2cccc2)c1 | 5%
CCOc1ccccc1N1CCN(Cc2cn[nH]c2-c2ccc(F)cc2)CC1 | ?
COc1ccccc1N1CCN(/N=C\c2ccc(C)o2)CC1 | -7%
CC(=O)N1c2ccc(S(=O)(=O)CCC(=O)O)cc2CC1C (centres undefined) | 7%
COC(=O)C1=C(C(=O)OC)[C@@H]2Nc3ccccc3[C@@]23C[C@@H](C(=O)OC)N(C(=O)c2ccc(Br)cc2)C3=N1 | -24%
O=C(CC(=O)c1ccccc1O)c1ccc(F)cc1 | 10%
COc1ccc(S(=O)(=O)N(C)c2ccc(C(=O)Nc3cccnc3)cc2)cc1OC | 1%
O=C(NNC(=S)Nc1ccccc1Cl)C1CC1 | -12%
COc1cccc(/C=N/n2nnnc2N)c1 | -16%
O=C(O)c1ccc(F)c(S(=O)(=O)Nc2ccccc2)c1 | -15%
CCNC(=S)N1CCC(C(=O)c2ccc3c(c2)OCCO3)CC1 | -9%
CCOc1ccc(N2CC(C(=O)Nc3cccc(C)c3C)CC2=O)cc1 (centres undefined) | 10%
CC(C)=CC(=O)N1CCCC(N2CCN(c3ccccc3C)CC2)C1 (centres undefined) | 3%
Cc1cc(OC(=O)c2cccc(Cl)c2)c([N+](=O)[O-])c(=O)[nH]1 | -4%
Cc1cc(C)c(S(=O)(=O)N2CCC(C(=O)NCc3ccco3)CC2)c(C)c1 | -3%
O=C(CN1CCSc2ccccc21)N1CCN(c2ccccc2)CC1 | 16%
CC12CCC(=O)C=C1CCC1C2C(O)CC2(C)C1CCC21OCC1=O (centres undefined) | -20%
Cn1c(=O)c(C(=O)NNC(=O)c2cccc(Cl)c2)c(O)c2ccccc21 | 2%
Cc1ccc(/C=N/n2cnc3sc(C)c(C)c3c2=O)o1 | ?
CC(C)=NN1C(c2nonc2N)=NOC1(C)C | ?
CC(=O)/C(=N/Nc1ccccc1[N+](=O)[O-])N1CCCc2ccccc21 | -6%
COc1ccc(C=NCC2COc3ccccc3O2)cc1OC (centres undefined) | -7%
CCc1ccc(NC(=O)C2CCN(S(=O)(=O)c3c(C)noc3/C=C/N(C)C)CC2)cc1 | -4%
O=C(NCc1ccccc1)Nc1cccn(Cc2ccc(F)cc2)c1=O | -15%

The final two entries of the part above open the next one:
SMILES | VDR inhibitor
CCc1ccc(NC(=O)C2CCN(S(=O)(=O)c3c(C)noc3/C=C/N(C)C)CC2)cc1 | -4%
O=C(NCc1ccccc1)Nc1cccn(Cc2ccc(F)cc2)c1=O | -15%
COc1ccc(C(CC(=O)NCc2ccccc2)Sc2n[nH]c(-c3ccccc3)n2)cc1 (centres undefined) | -8%
COc1ccc(Cl)cc1S(=O)(=O)N1CCCC(C(=O)NCCc2ccccc2)C1 (centres undefined) | -11%
COc1ccc(CCNC(=O)C2CCCN(S(C)(=O)=O)C2)cc1OC (centres undefined) | 15%
COC(=O)CSC1=C(C#N)C(c2ccccc2OC)C(C(=O)OC)C(=O)N1 (centres undefined) | -2%
Cc1c(C(=O)N2CCCCC2)sc(NC(=O)C(C)C)c1C#N | -9%
CNC(=O)C1C2C=CC3(O2)C1C(=O)N(C1CC1)C3C(=O)NCc1ccc(OC)cc1 (centres undefined) | -11%
CC(C)(C)NC(=O)CSc1nc(-c2ccccc2)c(-c2ccccc2)[nH]1 | -1%
Cn1c(SCC(=O)c2ccccc2)nnc1-c1ccccn1 | -5%
CCc1c(C)nc2ncnn2c1N1CCC(C(=O)NCc2cccs2)CC1 | -1%
COc1cccc(OCc2nnc(SCC(=O)NCc3ccco3)n2CCc2ccccc2)c1 | -6%
COc1ccc(/C=N/n2cnn(Cc3ccccc3Cl)c2=S)cc1 | ?
COc1c(O)cccc1O | 0%

Reformatted with the structure last: entries from further up.
VDR inhibitor,smiles
-11%,CNC(=O)C1C2C=CC3(O2)C1C(=O)N(C1CC1)C3C(=O)NCc1ccc(OC)cc1 (centres undefined)
-1%,CC(C)(C)NC(=O)CSc1nc(-c2ccccc2)c(-c2ccccc2)[nH]1
-5%,Cn1c(SCC(=O)c2ccccc2)nnc1-c1ccccn1
-1%,CCc1c(C)nc2ncnn2c1N1CCC(C(=O)NCc2cccs2)CC1

Additional structures
SMILES | VDR inhibitor
CC(C)NC(=O)NC(=O)COC(=O)C1(C)CC1(Cl)Cl (centres undefined) | -14%
COc1ccccc1CNC(=O)c1c2c(nc3ccccc13)C(=O)N(C1CCCCC1)C2 | 8%
CCC12CN3CC(CC)(CN(C1)C31C(=O)N(C)c3ccc(C)cc31)C2=O (centres undefined) | -25%
COc1ccc(C(=O)c2ccc(OC)c(OC)c2)cc1OC | 2%
COc1cc(/C=C2\SC(=S)N(N3CCOCC3)C2=O)cc(OC)c1OC | -27%
CC(=O)N1CCN(CC(=O)Nc2sccc2C#N)CC1 | -5%
CCOc1ccc(NC(=O)CSc2nc3[nH]ncc3c(=O)n2-c2ccccc2OC)cc1 | 5%
CC1CN(C(=O)C2CCCC2)C(C)CN1C(=O)C1CCCC1 (centres undefined) | -12%
O=C(COC(=O)/C=C/c1ccccc1)Nc1ccccc1Br | -28%
COC(=O)c1ccc(Sc2ccc(Cl)cc2)c(N)c1 | 7%
CCn1c(C(=O)N2CCC(C(=O)N3CCN(c4ccc(OC)cc4)CC3)CC2)cc2sccc21 | -1%
Cc1ccc(NC(=O)c2nc[nH]c2C(=O)N2CCC(C)CC2)cc1 | 7%
CCC(C(=O)N1CCN(S(=O)(=O)c2sc(C(=O)O)c(C)c2C(=O)O)CC1)c1ccccc1 (centres undefined) | -11%
CCOc1c(OC)cc(C2C(C#N)=C(N)Oc3n[nH]c(-c4ccncc4)c32)cc1OC (centres undefined) | 7%
CCO/C=C1/C(=O)N(CC)c2ccccc21 | -17%
CN(C)S(=O)(=O)c1ccc(Cl)c(NC(=O)COC(=O)/C=C/c2cnc3ccccc3n2)c1 | 5%
Cc1ccc(S(=O)(=O)N2CCC[C@H]2C(=O)OCc2nc3ccccc3s2)cc1 | -10%
CC(=O)NCC(=O)OCC(=O)c1ccc(C)c(C)c1 | 5%
O=C(Nc1ccccn1)c1ccc(Cl)c(S(=O)(=O)N2CCOCC2)c1 | -11%
Oc1ccc(/C=N/N2CCCCC2)c(O)c1 | 9%
Cc1ccccc1CN1C(=O)c2ccccc2S(=O)c2ccc(C(=O)NCc3ccc4c(c3)OCO4)cc21 (centres undefined) | -9%
O=C(NCC1CCCO1)C1CCC(=O)N1Cc1ccccc1Cl (centres undefined) | -2%
CC(=O)c1ccc(NC(=O)CSc2ccc(-c3ccc(-n4cccn4)cc3)nn2)cc1 | 19%
COCCn1c(Cc2cccn2C)nnc1SCC(=O)NCc1ccc2c(c1)OCO2 | -2%
Cn1cnnc1SCC(=O)Nc1ccc2ccccc2c1 | -1%
CCCC(=O)Nc1cccc(-c2nc3cc(C)c(C)cc3o2)c1C | -13%
CCc1ccc2c(CN(C)Cc3ccccc3OC)cc(=O)oc2c1 | 10%
CCOC(=O)c1c(NC(=O)C2=C(C)NC(=S)NC2c2ccc(C)cc2)sc(C)c1C (centres undefined) | -23%
Cc1cccc(CNc2ncnc3[nH]ncc23)c1 | 3%
Cc1cc(NC(=O)c2ccc3c(c2)N(Cc2cccc(Cl)c2)C(=O)c2ccccc2S3(=O)=O)ccc1Br | 9%
Cc1cc(NC(=O)COC(=O)c2cccc(O)c2)no1 | -15%
Cc1ccc(-n2nc(C)c3c(C)cc(=O)n(CC(=O)NC(C)c4ccccc4)c32)cc1 (centres undefined) | -3%
COc1ccc(OC)c(S(=O)(=O)N2CCC(C(=O)Nc3ccc(C)c(C)c3)CC2)c1 | 1%
Cc1ccccc1/C=C/c1cc[n+](C)cc1 | -26%
COC(=O)c1sccc1NC(=S)N1CCN(c2cc(C)ccc2C)CC1 | 2%
CC(C)N(c1ccccc1)c1ccc(NC(=O)C2CCCO2)cc1 (centres undefined) | -1%
CC(C)Cc1nnc(NC(=O)CC(C)c2ccccc2)s1 (centres undefined) | -18%
COc1cc(CC(NC(C)=O)C(=O)NC2CCN(c3nc(C)cc(C)c3C#N)CC2)cc(OC)c1 (centres undefined) | 10%
S=C(N/N=C/c1ccccc1Cl)Nc1cccc(Cl)c1Cl | ?
C=CCNC(=O)c1ccc2c(c1)nnn2C | -6%
Cc1cc(N/C(=N/S(=O)(=O)c2cc(F)ccc2F)c2ccccc2)n(-c2ccccc2)n1 | -6%
COc1ccccc1N1CSC2=C(C#N)C(c3ccc(SC)cc3)CC(=O)N2C1 (centres undefined) | 22µM*
CCN(C(=O)c1cc(S(=O)(=O)N2CCCCC2)c[nH]1)c1ccc(OC)cc1 | 9%&2%
Cc1ccc(S(=O)(=O)Nc2cc(C(=O)NCCN3CCCC3)ccc2N2CCCCC2)cc1 | 11%
CCOC(=O)N1CCN(CC(O)COC(CC)c2ccccc2)CC1 (centres undefined) | 3%
CC(C)(C)C(=O)NCC(c1ccc2c(c1)OCO2)N1CCOCC1 (centres undefined) | -2%
CCN(CC)c1cc(C)nc2nc(-c3ccc(C)cc3)nn12 | 1%
COc1cccc(N2CC(C)Cn3c2nc2c3c(=O)[nH]c(=O)n2C)c1 (centres undefined) | 6%
CCOc1ccc(NC(=S)NC(=O)/C=C/c2ccc(OC)c(OC)c2)c([N+](=O)[O-])c1 | -11%
COc1cccc(OC)c1CN(C)C(=O)c1cnccc1C(F)(F)F | 9%
Cn1c(=O)c2cn(-c3ccccc3)cc2n(C)c1=O | -9%
COc1ccc(NC(=O)C2CCCN2C(=O)Nc2cccc(F)c2)cc1 (centres undefined) | -1%
CN1C(=O)SC(Nc2cccc3ccccc23)C1=O (centres undefined) | 21%
COc1ccc(Cn2c(=O)[nH]c3cc(C(=O)NCCC(C)C)ccc3c2=O)cc1 | -8%
COC(=O)Sc1nc(N2CCOCC2)c2c(c1C#N)CC(C)(C)OC2 | -12%
COC(=O)C(Cc1ccccc1)NC(=O)c1ccc(NS(=O)(=O)c2ccc3[nH]c(=O)[nH]c3c2)cc1 (centres undefined) | 4%
COc1ccc(-c2nc3n(c(=O)c2C#N)CCS3)cc1 | -6%
Cc1ccc(Cl)cc1NC(=O)/C(C#N)=C/c1c(C)n(Cc2ccccc2)c2ccccc12 | -7%
CCOCCCN(C)C1CCN(C(=O)c2oc3ccccc3c2NC(=O)COc2ccc(F)cc2)CC1 | 10%
